Screening data (PubChem BioAssay)
MARV entry inh: blocks Marburg virus binding to or entry into cells | Marburg virus pseudotyped entry inhibition, cell reporter; control for the full effect not named in the record; about a third of the inactives were read at about 46 µM | Potency, µM (titrated, usually from 37.8 µM), without a hit: top-dose activity change, negative = inhibition, hits mostly inhibitors | 300,000 compounds, 1.8% hits | AID 540276; active = well fitted inhibition curve with a large enough effect; inconclusive = small, poorly fitted or top-dose-only effect, or effect the other way; inactive = flat fitted curve, though single readings scatter; tested in HEK293 cells; about a fifth of its hits are not listed in these tables; further: on the % scale 0 is the no-effect control and ±100 the full control effect; luciferase read-out
SARS PLP yeast: SARS-CoV PLP inhibition in yeast; S. cerevisiae expressing SARS-CoV PLpro, growth rescue; control for the full effect not named in the record; Potency, µM (series often up to 32.9 µM), for the others: top-dose activity, positive = growth rescue; 330,000 compounds, 0.19% hits; AID 485353; active means well fitted rising curve with a large enough effect; inconclusive means small, poorly fitted or top-dose-only effect; inactive means no such curve, though single readings can be large or run the other way; further: 0% is about no effect; nearly all actives have a fitted effect of over 55% in size; growth read by luminescence after 48 h
RE007 growth inh: less growth of the S. pombe RE007 Vpr strain | Potency, µM (highest dose often 92.2 µM), without a hit: at the top dose activity change, negative = less growth | 360,000 compounds, 0.21% hits | S. pombe RE007 Vpr strain, BacTiter-Glo ATP luminescence, 24 h; control for the full effect not named in the record; active = well fitted falling curve with a large enough effect; inconclusive = small, poorly fitted or top-dose-only effect; inactive = no such curve, though single readings can be large or run the other way;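 further: on the % scale 0 is the no-effect control and ±100 the full control effect; nearly all actives have a fitted effect of over 50% in size; the assay follows cell death caused by Vpr and the record does not say whether a fall means rescue or toxicity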
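Fission yeast RE007 carrying one integrated HIV-1 vpr copy, seeded at OD 0.01 in PMG+AL medium with 23 nL pinned compound. Grown 24 h at 30 degrees; viability read by BacTiter-Glo luminescence after 5 min.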
LASV entry inh: Lassa virus entry inhibition. Potency, µM (doses to about 37.9 µM), without a hit: top-dose activity change, negative = inhibition, usual class: inhibitors. Lassa virus pseudotype entry inhibition, cell reporter; control for the full effect not named in the record. AID 540256. 300,000 compounds, 1.2% hits; active means well fitted inhibition curve with a large enough effect; inconclusive means small, poorly fitted or top-dose-only effect, or effect the other way; inactive means flat fitted curve, though single readings scatter; tested in HEK293 cells; further: on the % scale 0 is the no-effect control and ±100 the full control effect; nearly all actives have a fitted effect of over 50% in size; luciferase read-out
Cruzain inh noDet: inhibitors of Trypanosoma cruzi cruzain without detergent | purified cruzain, Z-FR-AMC fluorescence, no detergent | Potency, µM, for inactives: max response, negative = inhibition, most hits filed as inhibitors | 200,000 compounds, 2.3% hits | P25779 | AID 1476;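 further: plate controls were enzyme without inhibitor for no effect and buffer without enzyme for full effect; nearly all actives have a fitted effect of over 40% in size; top concentration of the series not given in the record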
Target sequence (P25779 123-467 limits assumed): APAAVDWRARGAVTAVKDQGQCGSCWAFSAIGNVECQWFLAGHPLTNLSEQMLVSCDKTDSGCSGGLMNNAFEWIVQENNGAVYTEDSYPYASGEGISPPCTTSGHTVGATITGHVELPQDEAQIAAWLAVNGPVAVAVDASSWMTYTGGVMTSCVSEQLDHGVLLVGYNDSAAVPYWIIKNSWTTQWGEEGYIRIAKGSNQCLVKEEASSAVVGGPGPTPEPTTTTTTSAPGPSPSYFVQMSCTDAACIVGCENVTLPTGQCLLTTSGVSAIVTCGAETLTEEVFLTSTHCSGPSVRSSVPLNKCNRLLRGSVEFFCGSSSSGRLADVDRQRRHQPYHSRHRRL
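Purified cruzain at 1.5 nM, pre-incubated 15 min with compound at room temperature in 100 mM sodium acetate pH 5.5, 5 mM DTT, 0.00005% Triton X-100. Reaction started with 2 uM Z-FR-AMC; AMC fluorescence increase over 60 s gives rate.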
NS1 inh: inhibitors of influenza NS1 protein function | 270,000 compounds, 0.4% hits | S. cerevisiae slowed by influenza A NS1, growth recovery by OD600 | AID 2326 | Potency, µM (series often up to 46.1 µM), inactives show at the top dose activity, positive = more growth; active means well fitted rising curve with a large enough effect; inconclusive means small, poorly fitted or top-dose-only effect; inactive means no such curve, though single readings can be large or run the other way; further: nearly all actives have a fitted effect of over 50% in size
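Recovery from NS1-induced slow growth read by OD600 in budding yeast switched to galactose assay medium (pH 6.0, -URA) at 1:100 dilution. Compound 23 nl per well; the matching strain lacking NS1 serves as control.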
Cruzain Triton: cruzain (T. cruzi) inhibition with detergent; purified cruzain, Z-FR-AMC fluorescence, 0.01% Triton; P25779; 200,000 compounds, 0.43% hits; AID 1478; Potency, µM, inactives show max response, negative = inhibition, most hits filed as inhibitors;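 further: plate controls were neutral wells for no effect and buffer without enzyme for full effect; nearly all actives have a fitted effect of over 40% in size; top concentration of the series not given in the record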
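Compounds were screened in titration against cruzain (1.5 nM) with 0.01% Triton X-100 to counter colloidal aggregation. Activity was the AMC fluorescence increase over 60 s after adding 2 uM Z-FR-AMC at pH 5.5.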
2A StopGo: FMDV 2A StopGo reporter, luciferase signal; human cells with a luciferase reporter of 2A StopGo recoding; control for the full effect not named in the record; Potency, µM (doses to about 57.9 µM), for the others: at the top dose signal change, negative = less light; 410,000 compounds, 1.2% hits; AID 1159524; active = well fitted falling curve with a large enough effect; inconclusive = small, poorly fitted or top-dose-only effect; inactive = no such curve, though single readings can be large or run the other way; tested in HEK293T cells; further: on the % scale 0 is the no-effect control and ±100 the full control effect; nearly all actives have a fitted effect of over 45% in size; luciferase light after 4 h
The depositor's hits bear a star; ? = inconclusive; · = not tested or not shown; & = joins results of further samples; [ ] = another dose, or the depositor's remark. Unless noted, the call rests on the fitted dose curve; in most records, active means well fitted curve in the direction sought with a large enough effect; inconclusive means small, poorly fitted or top-dose-only effect, or another doubt; inactive means no such curve, though single readings can be large; an effect the other way counts as inactive or inconclusive. Potency means the concentration at half of the fitted maximal effect.

SMILES | MARV entry inh | SARS PLP yeast | RE007 growth inh | LASV entry inh | Cruzain inh noDet | NS1 inh | Cruzain Triton | 2A StopGo
c1ccc(N2CCN(Cc3cccn3-c3nnc(N4CCN(C5CCCCC5)CC4)s3)CC2)cc1 | · | · | · | 18%[46.1 µM] | 1% | · | -0.3% | -24%
CCN(c1ccccc1)S(=O)(=O)c1ccc2[nH]cc(C(=O)NCCOC)c(=O)c2c1 | -25%&-25% | -1% | 28% | -33% | ? | -11% | 2.3% | -2%
O=C(Nc1cccc(Cl)c1)c1ccc(-n2cncn2)c([N+](=O)[O-])c1 | -20% | -4% | 9%[3.69 µM] | -20% | ? | -13% | -5.7% | ?
O=C(Cn1nc(-c2ccccc2)c2ccccc2c1=O)NCCO | · | 1% | -7% | · | · | -3% | · | -3%
CCOP(=O)(OCC)C(NC(=O)Nc1c(C)cc(C)cc1C)c1ccccc1 (stereo not given) | 1%[46.1 µM] | 0% | -6% | 7%[46.1 µM] | · | · | · | -14%
Cc1n[nH]c(=S)n1-c1cccc(Cl)c1 | ? | 12% | 6% | 0% | 3% | 7% | 3.2% | 1%
O=C(OCC(=O)N1CCOCC1)c1ccc[nH]c1=O | -11% | 3% | 0% | -5% | 7% | 0% | 0.8% | 13%
COc1ccc(C(=O)c2c[nH]cc2-c2ccccc2)cc1 | 14% | 10% | 20% | 7% | 3% | 1% | -3.8% | -5%
CCOC(=O)CSc1nc2sc(C)c(C)c2c(=O)[nH]1 | -4%[46.1 µM] | 4% | -18% | 5% | 3% | -31% | 2.5% | -13%
CCN1C(=O)N(CC)c2cccc3cccc1c23 | · | -5% | -14% | · | · | -22% | · | -7%
O=C(NNc1nc(-c2ccccc2)c2cc(Br)ccc2n1)c1ccc(S(=O)(=O)N2CCOCC2)cc1 | -8% | 7% | 5% | 12% | -3% | 11µM* | -1.8% | ?
Cc1ncc(CO)c(/C=N/NC(=O)c2cc(Br)ccc2O)c1O | ? | ? | 1% | ? | · | -4% | · | 5%
CCOc1ccc2nc(SCC(=O)Nc3cc(C)on3)c(C)cc2c1 | ? | -5% | -1% | -8% | · | 2% | · | 0%
CCc1ccc(-n2c(=O)c3c(C)c(C(=O)N(C)C)sc3n(Cc3ccccc3C#N)c2=O)cc1 | · | · | · | 8%[46.1 µM] | -11% | · | 1.9% | 0%
Cc1nc2ccc(C(=O)OCc3nnc(-c4ccc(Br)cc4)o3)cc2nc1C | ? | -1% | 3% | -3% | · | -3% | · | -7%
COc1cc(C2/C(=C(\O)c3ccc4c(c3)OCCO4)C(=O)C(=O)N2Cc2ccccc2)ccc1O (stereo not given) | -14%[46.1 µM] | -1% | -11% | 4%[46.1 µM] | · | 0% | · | -6%
COc1cc2c(cc1OC)C(c1c(Cl)cccc1Cl)NC(=O)C2 (stereo not given) | · | 6% | 7% | · | · | 4% | · | -3%
Cc1cccc(C(=O)OCC(=O)Nc2c(C)nn(-c3ccccc3)c2C)c1O | 7% | 7% | -4% | 1% | · | · | · | -27%
CCC(=O)NCCc1nc2ccccc2n1Cc1ccccc1 | 1% | 0% | 8% | 3% | -17% | -8% | -0.4% | -6%
CCOc1cc2oc(=O)c3c(c2cc1Cl)CCC3 | -7% | -6% | 0% | 3% | -6% | -6% | 1.3% | 19%

Two records picked at random from those above, as already listed:
SMILES | MARV entry inh | SARS PLP yeast | RE007 growth inh | LASV entry inh | Cruzain inh noDet | NS1 inh | Cruzain Triton | 2A StopGo
CCOc1ccc2nc(SCC(=O)Nc3cc(C)on3)c(C)cc2c1 | ? | -5% | -1% | -8% | · | 2% | · | 0%
O=C(OCC(=O)N1CCOCC1)c1ccc[nH]c1=O | -11% | 3% | 0% | -5% | 7% | 0% | 0.8% | 13%

Later entries:
SMILES | MARV entry inh | SARS PLP yeast | RE007 growth inh | LASV entry inh | Cruzain inh noDet | NS1 inh | Cruzain Triton | 2A StopGo
COc1cc(OC)c(NC(=O)c2c(-c3ccccc3)noc2C)cc1Cl | ? | 0% | 3% | -2% | 0% | ? | -2.5% | 0%
O=S(=O)(NCCc1csc(-c2cccnc2)n1)c1ccc2c(c1)OCCO2 | · | ? | -1% | · | -12% | -12% | 1.7% | 2%
Cc1cc(NC(=O)C2CCN(S(=O)(=O)Cc3ccccc3)CC2)ccc1-n1cnnn1 | -9%[46.1 µM] | -16% | 3% | -9% | -2% | -3% | -0.6% | ?
CCOc1cccc(CC(=O)N2CCc3c([nH]c4ccccc34)C2c2ccc(F)cc2)c1OCC (stereo not given) | · | · | · | ? | ? | · | 0.7% | -11%
Cc1cccc(-n2c(-c3ccncc3)n[nH]c2=S)c1C | · | 0% | 0% | · | · | 10% | · | -4%
CC(=O)NC(=S)Nc1ccc(NC(=O)c2cccnc2)cc1 | 1% | 1% | 21% | ? | · | -3% | · | 0%
CC1=CS(=O)(=O)CC1Sc1ncn[nH]1 (stereo not given) | 11% | -22% | 2% | 4% | 2% | -2% | 2.2% | 22%
CN(C)c1nc(NCc2ccccc2)nc(SCC(=O)Nc2ccc(Cl)c(Cl)c2)n1 | 12µM* | -6% | -7% | -21% | -4% | 13% | 1.7% | ?
Cc1ccc(C)c(OCCCC(=O)Nc2ccc(N3CCOCC3)cc2)c1 | 4% | 0% | · | · | -18% | ? | -3.5% | ·
COc1ccccc1-c1nc(-c2ccc(C)nc2OC)no1 | 2% | -7% | -3% | 18% | -10% | 3% | -4.4% | 47%[activator]
CSc1ccc(S(=O)(=O)N2CCC(C(=O)Nc3ccc(C(N)=O)cc3)CC2)cc1 | ? | -14% | 2% | -44%[46.1 µM] | · | -3% | · | 3%
Cc1ccc(N(CC(=O)NCc2ccc3c(c2)OCO3)S(=O)(=O)c2c(C)noc2C)cc1 | 0% | 15% | -1% | · | 1% | 1% | -1.3% | -22%
Cn1cc(P(=S)(N2CCOCC2)N2CCOCC2)cc1P(=S)(N1CCOCC1)N1CCOCC1 | 6%[46.1 µM] | -3% | -17% | -1%[46.1 µM] | · | 3% | · | -9%
COc1ccc(NC(=S)N(CCCN2CCOCC2)Cc2ccccn2)cc1 | 2%[46.1 µM] | 1% | -21% | -6% | · | · | · | 10%
O=C(CN1CCCCC1)Nc1nc(-c2ccc(F)c(F)c2)cs1 | ? | 1% | -12% | ? | · | -9% | · | -9%
CC1(C)Cc2nc3sc4c(N(CCO)CCO)nnnc4c3cc2CO1 | 12%[46.1 µM] | 4% | 3% | 9%[46.1 µM] | · | · | · | -20%
COc1ccc(CN(CC(=O)NCC2CCCO2)C(=O)CNS(=O)(=O)c2ccccc2)cc1 (stereo not given) | -1%[46.1 µM] | 3% | -23% | -2%[46.1 µM] | · | 7% | · | 14%
COc1ccc(N2C(=O)CC(Sc3nc4c(cc3C#N)CCC4)C2=O)cc1 (stereo not given) | -2%[46.1 µM] | -1% | -23% | 3% | · | 7% | · | 9%
Cc1ccc(N2C(=O)C3C4C=CC(CNC(=S)N5CCN(c6cccc(C)c6)C(C)C5)(O4)C3C2=O)cc1 (stereo not given) | ? | -17% | 2µM* | 3%[46.1 µM] | · | · | · | -1%
O=C(Nc1ccc2c(c1)C(=O)OC2)c1ccc(Cl)cc1 | 10% | -2% | 4% | 2% | · | 12% | · | 22%
CCC(C)N(C(=O)Cn1cnc2c1c(=O)n(C)c(=O)n2C)C1CCS(=O)(=O)C1 (stereo not given) | 6% | -5% | -10% | 4% | · | · | · | -21%
Cc1c(N2C(=O)/C(=C/C3CC=CCC3)SC2=S)c(=O)n(-c2ccccc2)n1C (stereo not given) | ? | -1% | 17% | ? | · | 2% | · | 18µM*
CCOc1ccc(-c2cnc(NCc3cccc(Cl)c3)n2C)cc1 | ? | · | · | -4%[46.1 µM] | 14% | · | -0.2% | -8%
CCOC(=O)c1c(C)oc2ncnc(Nc3ccc(OC)cc3OC)c12 | 1%[46.1 µM] | · | · | 8%[46.1 µM] | -18% | · | -0.6% | -5%
Cc1ccc2onc(CNC(=O)N3CCN(c4cccc(C)c4C)CC3)c2c1 | · | · | · | -14%[46.1 µM] | 8% | · | -9.4% | -18%
N#CC1=C(N)OC2=C(C(=O)CCC2)C1CCc1ccccc1 (stereo not given) | 11%[46.1 µM] | 5% | 6% | 12% | -1% | -3% | 1.4% | -8%
O=C(Oc1cccnc1)c1ccco1 | 0%&0% | -4% | -12% | ? | 13% | -1% | 2.0% | -6%
CC(C)CCNC(=O)C(c1cccnc1)N(Cc1ccccc1)C(=O)Cn1nnc2ccccc21 (stereo not given) | ? | · | 6% | -5% | · | · | · | -15%
COC(=O)c1sccc1NS(=O)(=O)c1ccccc1[N+](=O)[O-] | 0% | 3% | 11% | 4%[46.1 µM] | · | · | · | 12%
O=C(CSc1nc2ccccc2c(=O)n1CCC(=O)N1CCCCC1)NCc1ccccc1 | -26% | 16% | 2% | -13% | 22% | -12% | -3.8% | 2%
COc1ccc(C2=NS(=O)(=O)N(C)C(C(=O)N3C(C)CCCC3C)=C2)cc1 (stereo not given) | · | 7% | -1% | · | · | 4% | · | 6%
CCc1cc(C(N)=S)ccn1 | · | -2%&0% | 1%&7%[18.4 µM] | · | -8%&-6%&-8% | 9% | -3.2%&2.9%&-3.0% | -15%&-10%&-12%
CC(=O)OC1CCC2(C)C3CCC4(C)C(OC(C)=O)CCC4C3C(C)C2(O)C1 (stereo not given) | 7%[46.1 µM] | · | 38% | 5%[46.1 µM] | · | · | · | 14%
CCCc1cc(=O)oc2cc(C)cc(OC(=O)c3ccco3)c12 | 7% | 0% | 2% | 16% | -6% | -14% | 4.5% | -22%
Cc1ccc(C(c2sc3nc(-c4ccco4)nn3c2O)N2CCOCC2)cc1 (stereo not given) | · | · | · | -1%[46.1 µM] | 7% | · | -1.0% | -2%
CC(C)(C)CC(=O)Nc1nnc(-c2cccs2)s1 | 4%[46.1 µM] | 0% | -5% | 16% | ? | -6% | -2.3% | 41%[activator]
COc1ccc(C)cc1NS(=O)(=O)c1ccc2c3c(cccc13)C(=O)N2 | · | · | · | ? | 23% | · | -12% | ?
COc1ccc(C2C(C(C)=O)=C(O)C(=O)N2c2ccccn2)cc1 (stereo not given) | ? | 0% | 1% | 11%[46.1 µM] | · | 4% | · | 29%
